Compound activity (PubChem)
Mtb hypoxia rep: reduces hypoxia-regulated biosensor signal in M. tuberculosis | AID 1159583 | M. tuberculosis hypoxia-regulated fluorescent reporter, fluorescence | actives 0.1% (n = 300,000) | fluorescence inhibition, % (concentration not given with the values);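 active means 35 to 45% if threefold the growth effect, above 45% if 1.5-fold the growth effect; inactive means the rest, general growth blockers included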;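 further: wells of about 50 µL received 100 nL stock; 0% = vehicle wells and 100% = reference inhibitor wells; whole bacteria with a GFP reporter of the hypoxia response; strong numbers were not always called active; many hits fall short of the cut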
Sa RN4220 lethal: S. aureus RN4220 growth inhibition. OD600, 16 h. inhibition, % (test concentration not listed). actives 0.33% (n = 330,000);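 active means z-score of -3 or lower and OD600 up to 0.18 on both plates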;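 further: plate controls were untreated cells for no effect and reference antibiotic for full effect; stock transfer was 100 nL into about 80 µL; one replicate is shown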
BJeLR lethal: kills HRASV12-expressing BJeLR cells; BJeLR (HRASV12) viability, CellTiter-Glo ATP luminescence, 48 h; reference of the scale not given here; actives 0.17% (n = 300,000); inhibition, % (test concentration not listed);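 active means replicate mean above 50%; inconclusive means above 50% but judged a plate artefact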;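 further: 50 nL library stock added to about 25 µL; numbers are from one replicate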
ugtP null kill: compounds lethal to S. aureus RN4220 ugtP deletion mutant | OD600 growth, 16 h; some inactives read as strong as hits | growth inhibition, % (concentration not given with the values) | actives 0.54% (n = 330,000);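 active means z-score under -3 and OD600 up to 0.15 on both plates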;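 further: plate controls were untreated wells for no effect and antibiotic for full effect; wells of about 80 µL received 100 nL stock; the first replicate is given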
Bead autofluor: compound fluorescence in toxin protease inhibitor counterscreen; compound autofluorescence counterscreen, microsphere flow cytometry; hits give high values; fluorescence intensity (concentration not given with the values); actives 3.1% (n = 360,000); AID 624483;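 active means at least 3 SD above the mean of all compounds, about 16000 in these data; inconclusive means too few beads counted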;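 further: 100 nL of 1 mM stock went into each well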
PrP UTR inh: inhibition of PrP 5' UTR reporter expression. cell-based PrP 5' UTR mRNA reporter, plate reader. inhibition, % (no concentration beside the values). actives 0.35% (n = 340,000);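 active means every replicate at 50% or more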;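 further: 0 = median of the neutral control wells; tested in H4 reporter cells; numbers are from one replicate; inactives centre near -14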
Mtb hypoxia rep growth: further read-out of Mtb hypoxia rep, marked with its call; growth inhibition, %; measured here: M. tuberculosis growth (absorbance);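 0% = vehicle and 100% = reference antibiotic; read after six days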
* marks the source's active call; other numbers are inactive results.

Results for CCc1cc2c(NC(Cc3c[nH]c4ccccc34)C(=O)O)nc(C)nc2s1 (configuration not stated) ?
Mtb hypoxia rep: 4; Sa RN4220 lethal: 9.1; BJeLR lethal: -32; ugtP null kill: 2; Bead autofluor: 2034; PrP UTR inh: -11; Mtb hypoxia rep growth: 3

What do the screens show for `CCc1[nH]nc2c1C(C1C=CCCC1)C(C#N)=C(N)O2` (configuration not stated)?
Mtb hypoxia rep: 4; Sa RN4220 lethal: 6.5; BJeLR lethal: 5; ugtP null kill: 9; Bead autofluor: 2609; PrP UTR inh: -21; Mtb hypoxia rep growth: 3

What do the screens show for `Cc1ccc(S(=O)(=O)N2CCCC(c3nnc4n3-c3ccccc3SC4)C2)cc1` (configuration not stated)?
Mtb hypoxia rep: 12; Sa RN4220 lethal: -14; BJeLR lethal: 5; ugtP null kill: -4; Bead autofluor: 3506; PrP UTR inh: -6; Mtb hypoxia rep growth: 6

How did COc1ccc2c(c1OC)c(=O)n1c3ccc(OC(C)C(=O)NCCN4CCOCC4)cc3c3ccnc2c31 (configuration not stated) do in these assays?
Sa RN4220 lethal: -0.7; BJeLR lethal: 8; ugtP null kill: 4; Bead autofluor: 5011; PrP UTR inh: -30

How did Cc1ccc(N=C2NC(=O)c3cccc([N+](=O)[O-])c32)cc1 do in these assays?
Mtb hypoxia rep: 10; Sa RN4220 lethal: 2.7; BJeLR lethal: -1; ugtP null kill: 8; Bead autofluor: 2007; PrP UTR inh: -26; Mtb hypoxia rep growth: 10

What do the screens show for `CCOC(=O)C1=C(CS(=O)(=O)c2ccc(Cl)cc2)NC(=O)NC1c1ccc(O)c(OC)c1` (configuration not stated)?
Mtb hypoxia rep: 3; Sa RN4220 lethal: 2.9; BJeLR lethal: 4; ugtP null kill: 4; Bead autofluor: 5264; PrP UTR inh: -5; Mtb hypoxia rep growth: -3

What do the screens show for `Nc1cc(-c2ccccc2)nn1Cc1ccc(Cl)cc1`?
Sa RN4220 lethal: -4.4; BJeLR lethal: 2; ugtP null kill: -4; Bead autofluor: 2773; PrP UTR inh: -11

Results for Cn1cc(-c2cccc(Cl)c2)cc(C#N)c1=O ?
Mtb hypoxia rep: 6; Sa RN4220 lethal: 6.4; BJeLR lethal: -12; ugtP null kill: 8; Bead autofluor: 4940; PrP UTR inh: -26; Mtb hypoxia rep growth: -1

How did O=S(=O)(c1ccc(N2CCCCCC2)nc1)N1CCCC1 do in these assays?
Mtb hypoxia rep: 5; Sa RN4220 lethal: 5.8; BJeLR lethal: 3; ugtP null kill: 2; Bead autofluor: 4234; PrP UTR inh: -13; Mtb hypoxia rep growth: 5

What do the screens show for `CC(=O)C1N=NCC1c1ccccc1` (configuration not stated)?
Mtb hypoxia rep: 14; Sa RN4220 lethal: 1.5; ugtP null kill: 4; Bead autofluor: 3457; PrP UTR inh: -4; Mtb hypoxia rep growth: 9

What do the screens show for `O=C(CSCc1ccccc1)Nc1cccc(C(=O)Nc2ccccc2C(=O)O)c1`?
Mtb hypoxia rep: 8; Sa RN4220 lethal: 4.3; BJeLR lethal: -13; ugtP null kill: 3; Bead autofluor: 10738; PrP UTR inh: -14; Mtb hypoxia rep growth: 12

What do the screens show for `CCOC(=O)c1c(C)nsc1NCc1ccccc1`?
Mtb hypoxia rep: -6; Sa RN4220 lethal: 2.2; BJeLR lethal: 2; ugtP null kill: 1; Bead autofluor: 6269; PrP UTR inh: -8; Mtb hypoxia rep growth: 9

How did COc1ccccc1C(=O)N1CCN(CCc2ccccc2)CC1 do in these assays?
Mtb hypoxia rep: 3; Sa RN4220 lethal: 0.4; BJeLR lethal: 3; ugtP null kill: 13; Bead autofluor: 12121; PrP UTR inh: -16; Mtb hypoxia rep growth: 2

Results for COc1ccc(C(=O)N2CC3(CC(c4cccc(NC(=O)CC(c5ccccc5)c5ccccc5)c4)=NO3)C[C@H]2C(N)=O)cc1 (some centres not stated) ?
BJeLR lethal: -4; Bead autofluor: 4033; PrP UTR inh: 2

Results for CC[C@@H]1C=C(C(=O)O)[C@H](c2ccc(C#N)cc2)N1S(=O)(=O)c1ccc(C)cc1 ?
Mtb hypoxia rep: -1; Sa RN4220 lethal: 1.1; ugtP null kill: 7; Bead autofluor: 3284; PrP UTR inh: -26; Mtb hypoxia rep growth: 2

How did CCOc1ccccc1C(=O)NC1CC2CCCC(C1)N2Cc1nnnn1Cc1ccco1 (configuration not stated) do in these assays?
Mtb hypoxia rep: 5; Sa RN4220 lethal: 2.8; BJeLR lethal: 4; ugtP null kill: 0; Bead autofluor: 8193; PrP UTR inh: -8; Mtb hypoxia rep growth: 8

Results for O=C(c1ccc(Br)c(S(=O)(=O)N2CCOCC2)c1)N1CCN(C/C=C/c2ccccc2)CC1 ?
Mtb hypoxia rep: 11; Sa RN4220 lethal: 4.3; ugtP null kill: 8; Bead autofluor: 5382; Mtb hypoxia rep growth: 1

How did COC(=O)C(CC(C)C)NC(=O)CSc1nc(-c2ccccc2)c(C#N)c(=O)[nH]1 (configuration not stated) do in these assays?
Mtb hypoxia rep: 11; Sa RN4220 lethal: 0.9; BJeLR lethal: 2; ugtP null kill: 11; Bead autofluor: 6741; PrP UTR inh: -14; Mtb hypoxia rep growth: 5

Results for CCC(=O)NC(c1cccs1)c1cc(Cl)c2ccccc2c1O (configuration not stated) ?
Mtb hypoxia rep: -2; Sa RN4220 lethal: 29; ugtP null kill: 10; Bead autofluor: 4311; PrP UTR inh: -19; Mtb hypoxia rep growth: 1

How did COc1ccc(/C=N/Nc2cc(C)nc3ccccc23)cc1 do in these assays?
BJeLR lethal: 20; Bead autofluor: 3524; PrP UTR inh: -19

What do the screens show for `Cc1ccsc1C(=O)OC1CCOC1=O` (configuration not stated)?
Sa RN4220 lethal: 0.7; BJeLR lethal: 22; ugtP null kill: 6; Bead autofluor: 3935; PrP UTR inh: -19

How did CC(=O)NC(CC(=O)N(C)Cc1c(F)cccc1Cl)c1ccccc1 (configuration not stated) do in these assays?
Mtb hypoxia rep: 13; Sa RN4220 lethal: -2.9; BJeLR lethal: -4; ugtP null kill: 2; Bead autofluor: 4372; PrP UTR inh: 10; Mtb hypoxia rep growth: 4

Results for CC1C2CC(CC2=NNC(=O)c2cccs2)C1(C)C (configuration not stated) ?
Mtb hypoxia rep: 13; Sa RN4220 lethal: 3.6; ugtP null kill: -5; Mtb hypoxia rep growth: 9

Results for O=C(Nc1cccc(O)c1)c1ccc(NC(=O)c2cccs2)cc1 ?
Mtb hypoxia rep: 4; Sa RN4220 lethal: 2.2; BJeLR lethal: -8; ugtP null kill: 2; Bead autofluor: 4349; PrP UTR inh: -33; Mtb hypoxia rep growth: -2

Results for O=C(Cn1c(=O)oc2ccccc21)NC(=O)NCc1ccco1 ?
Mtb hypoxia rep: 6; Sa RN4220 lethal: 4.9; BJeLR lethal: -11; ugtP null kill: 9; Bead autofluor: 3593; PrP UTR inh: -21; Mtb hypoxia rep growth: -3

Results for O=C(CSCc1ccc([N+](=O)[O-])cc1)NC1CC1 ?
Mtb hypoxia rep: -3; Sa RN4220 lethal: 3.8; BJeLR lethal: -4; ugtP null kill: 7; Bead autofluor: 2291; PrP UTR inh: -4; Mtb hypoxia rep growth: -1

How did CCCOc1ncnc2c1[nH]c1ccc(C)cc12 do in these assays?
Mtb hypoxia rep: 11; Sa RN4220 lethal: 1.1; BJeLR lethal: -3; ugtP null kill: -2; Mtb hypoxia rep growth: 5

What do the screens show for `Nn1c(SCc2cccc(Br)c2)nnc1-c1cccnc1`?
Mtb hypoxia rep: 11; Sa RN4220 lethal: 2.5; BJeLR lethal: 1; ugtP null kill: 9; Bead autofluor: 4250; PrP UTR inh: 6; Mtb hypoxia rep growth: -9

How did CC(C)(C)c1ccc(-n2ncc3c2CCCC3NC(=O)c2ccncc2)cc1 (configuration not stated) do in these assays?
Mtb hypoxia rep: 10; Sa RN4220 lethal: 5.5; BJeLR lethal: 20; ugtP null kill: -4; Bead autofluor: 6800; PrP UTR inh: -13; Mtb hypoxia rep growth: 10

What do the screens show for `CCOC1=NN(c2ncc(C(F)(F)F)cc2Cl)C(=O)/C1=C/N(C)C`?
Mtb hypoxia rep: -3; Sa RN4220 lethal: 2.6; BJeLR lethal: 4; ugtP null kill: 1; Bead autofluor: 4520; PrP UTR inh: -15; Mtb hypoxia rep growth: 10

Results for CCOc1ccc(-c2nnc(N)s2)cc1 ?
Mtb hypoxia rep: 3; Sa RN4220 lethal: 7.6; BJeLR lethal: -8; ugtP null kill: 5; Bead autofluor: 10622; PrP UTR inh: -47; Mtb hypoxia rep growth: 4

How did Nc1ccc(Cl)c(NC(=O)c2cccs2)c1 do in these assays?
Mtb hypoxia rep: 9; Sa RN4220 lethal: -8.0; BJeLR lethal: -6; ugtP null kill: -3; Bead autofluor: 2854; PrP UTR inh: -26; Mtb hypoxia rep growth: 5

How did Fc1ccccc1CSc1ncnc2sc3c(c12)CCCC3 do in these assays?
Mtb hypoxia rep: -3; Sa RN4220 lethal: -2.2; BJeLR lethal: 2; ugtP null kill: 71; Bead autofluor: 2609; PrP UTR inh: -56; Mtb hypoxia rep growth: 8

What do the screens show for `COc1ccc(N2CC(NC(=O)N3CCN(c4ccccc4)CC3)CC2=O)cc1` (configuration not stated)?
Mtb hypoxia rep: 9; Sa RN4220 lethal: 1.9; BJeLR lethal: -14; ugtP null kill: 0; Bead autofluor: 5959; PrP UTR inh: -10; Mtb hypoxia rep growth: -2

How did Cc1cc(C)nc(SCC(=O)OCC(=O)Nc2nc3ccccc3s2)n1 do in these assays?
Mtb hypoxia rep: 3; Sa RN4220 lethal: 4.4; BJeLR lethal: 1; ugtP null kill: 9; Bead autofluor: 2901; PrP UTR inh: -13; Mtb hypoxia rep growth: -1

What do the screens show for `Cc1cc(O)ccc1N/C=C(\C#N)c1nc2ccccc2o1`?
BJeLR lethal: -3; Bead autofluor: 7001; PrP UTR inh: -17

What do the screens show for `Cc1ccc(NC(=O)CCNS(=O)(=O)c2cccc3nonc23)cc1Cl`?
Mtb hypoxia rep: 15; Sa RN4220 lethal: 11; BJeLR lethal: 11; ugtP null kill: 0; Bead autofluor: 4631; PrP UTR inh: -30; Mtb hypoxia rep growth: 8

Results for Cc1cc2nnc(SC3CCCCN(C(=O)c4ccc(F)cc4)C3=O)n2c2ccccc12 (configuration not stated) ?
Mtb hypoxia rep: 6; Sa RN4220 lethal: 6.9; BJeLR lethal: -9; ugtP null kill: 6; Bead autofluor: inconclusive; PrP UTR inh: -17; Mtb hypoxia rep growth: -3

Results for CS(=O)(=O)N(CC(=O)NCC1CCCO1)c1cc(Cl)c(Cl)cc1Cl (configuration not stated) ?
Mtb hypoxia rep: -2; Sa RN4220 lethal: 8.9; BJeLR lethal: 0; ugtP null kill: 7; Bead autofluor: 4511; PrP UTR inh: -15; Mtb hypoxia rep growth: -6

Results for Cc1cc(=O)n2[nH]c(-c3ccccc3Cl)cc2n1 ?
Sa RN4220 lethal: 1.1; BJeLR lethal: 6; ugtP null kill: -8; Bead autofluor: 5203; PrP UTR inh: -31

What do the screens show for `O=C(COC(=O)[C@@H]1CC(O)CN1S(=O)(=O)c1ccc2c(c1)OCCO2)Nc1ccccc1F` (some centres not stated)?
Mtb hypoxia rep: -2; Sa RN4220 lethal: 2.6; BJeLR lethal: 4; ugtP null kill: 3; Bead autofluor: 3359; PrP UTR inh: -14; Mtb hypoxia rep growth: 6

Nothing new here: entries from further up.
What do the screens show for `Cc1ccc(NC(=O)CCNS(=O)(=O)c2cccc3nonc23)cc1Cl`?
Mtb hypoxia rep: 15; Sa RN4220 lethal: 11; BJeLR lethal: 11; ugtP null kill: 0; Bead autofluor: 4631; PrP UTR inh: -30; Mtb hypoxia rep growth: 8

Results for Cc1cc2nnc(SC3CCCCN(C(=O)c4ccc(F)cc4)C3=O)n2c2ccccc12 (configuration not stated) ?
Mtb hypoxia rep: 6; Sa RN4220 lethal: 6.9; BJeLR lethal: -9; ugtP null kill: 6; Bead autofluor: inconclusive; PrP UTR inh: -17; Mtb hypoxia rep growth: -3

Results for CS(=O)(=O)N(CC(=O)NCC1CCCO1)c1cc(Cl)c(Cl)cc1Cl (configuration not stated) ?
Mtb hypoxia rep: -2; Sa RN4220 lethal: 8.9; BJeLR lethal: 0; ugtP null kill: 7; Bead autofluor: 4511; PrP UTR inh: -15; Mtb hypoxia rep growth: -6

Results for Cc1cc(=O)n2[nH]c(-c3ccccc3Cl)cc2n1 ?
Sa RN4220 lethal: 1.1; BJeLR lethal: 6; ugtP null kill: -8; Bead autofluor: 5203; PrP UTR inh: -31
